Sa RN4220 lethal = growth inhibition of S. aureus RN4220, primary screen, OD600 | 16 h | inhibition, % (concentration not given with the values) | 330,000 compounds, 0.33% hits;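 active = z-score of -3 or lower and OD600 up to 0.18 on both plates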;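 also: plate controls were untreated cells for no effect and reference antibiotic for full effect; stock transfer was 100 nL into about 80 µL; one replicate is shown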
BJeLR viability = MLPCN primary cell-based screen for lethality selective to Ras in HRASV12 cells. AID 1554, 2009. 300,000 compounds, 0.17% hits. BJeLR (HRASV12) viability, CellTiter-Glo ATP luminescence, 48 h; reference of the scale not given here. inhibition, % (concentration not given with the values);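 active = replicate mean above 50%; inconclusive = above 50% but judged a plate artefact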;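 also: 50 nL library stock added to about 25 µL; numbers are from one replicate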
Mtb hypoxia rep = PubChem AID 1159583; M. tuberculosis hypoxia-regulated fluorescent reporter, fluorescence; fluorescence inhibition, % (concentration not given with the values); 300,000 compounds, 0.1% hits;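 active = 35 to 45% if threefold the growth effect, above 45% if 1.5-fold the growth effect; inactive = the rest, general growth blockers included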;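 also: wells of about 50 µL received 100 nL stock; 0% = vehicle wells and 100% = reference inhibitor wells; whole bacteria with a GFP reporter of the hypoxia response; strong numbers were not always called active; many hits fall short of the cut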
ugtP null kill = growth inhibition of ugtP-null S. aureus, primary screen, RN4220 ugtP deletion, OD600 | 16 h; some inactives read as strong as hits | growth inhibition, % (test concentration not listed) | 330,000 compounds, 0.54% hits;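 active = z-score under -3 and OD600 up to 0.15 on both plates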;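 also: plate controls were untreated wells for no effect and antibiotic for full effect; wells of about 80 µL received 100 nL stock; the first replicate is given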
PrP UTR inh = inhibition of PrP 5' UTR reporter expression; cell-based PrP 5' UTR mRNA reporter, plate reader; inhibition, % (concentration not given with the values); 340,000 compounds, 0.35% hits; AID 488862, 2010;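 active = every replicate at 50% or more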;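 also: 0 = median of the neutral control wells; tested in H4 reporter cells; numbers are from one replicate; inactives centre near -14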
Autofluor counter = counter-screen for toxin protease inhibitors: compound fluorescence | compound autofluorescence counterscreen, microsphere flow cytometry; hits give high values | fluorescence intensity (test concentration not listed) | 360,000 compounds, 3.1% hits;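 active = at least 3 SD above the mean of all compounds, about 16000 in these data; inconclusive = too few beads counted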;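 also: 100 nL of 1 mM stock went into each well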
Mtb hypoxia rep growth = recorded beside Mtb hypoxia rep, whose call it bears; growth inhibition, %; measured here: M. tuberculosis growth (absorbance);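 0% = vehicle and 100% = reference antibiotic; read after six days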
An asterisk follows results filed as active; ? = inconclusive; . = no result given.

SMILES	Sa RN4220 lethal	BJeLR viability	Mtb hypoxia rep	Mtb hypoxia rep growth	ugtP null kill	PrP UTR inh	Autofluor counter
Cc1ccc(OCC(=O)Nc2cccc(S(=O)(=O)N3CCCCCC3)c2)cc1C	0.2	-7	-8	-10	-2	0	?
CCOc1ccccc1NC(=O)CCN(c1ccc(C)cc1)S(=O)(=O)c1ccccc1	4.0	-4	-5	10	-10	-12	2550
CCCN(CC(=O)Nc1ccccc1C)C(=O)C1CCN(C(=O)Nc2ccccc2)CC1	3.4	2	4	-4	13	-4	?
O=C(Nc1cccc(NC(=O)c2ccc(Cl)cc2)n1)c1ccc(Cl)cc1	5.1	-4	-9	-9	1	-11	.
CCCCc1nc2cc(C(=O)N(C)C(C)c3ccccn3)ccc2o1 (configuration not stated)	-1.0	-1	-6	8	-7	-13	4730
COc1ccc(C2CC(O)(c3ccccc3)Oc3cc(OC)ccc32)cc1 (configuration not stated)	1.2	-2	1	1	12	-17	3081
Cc1cc(OCc2cc(C(=O)O)oc2C)c2c3c(c(=O)oc2c1)CCCC3	9.0	3	0	2	2	-17	9737
O=C(COc1ccccc1Cl)N(Cc1ccco1)C1CCS(=O)(=O)C1 (configuration not stated)	-0.2	-7	8	3	-4	-13	4773
Cc1ccc(NC(=O)CSc2nnc(NC(=O)C(C)C)s2)c(C)c1	5.4	-6	10	4	2	-19	5839
COc1nc(-c2cccc([N+](=O)[O-])c2)nc2ccccc12	9.0	4	-8	3	4	.	5671
Cc1nc2ccccc2c(=O)n1N=Cc1ccc2ccccc2c1O	5.5	.	7	-5	15	.	.
Cc1cccc(C(=O)NC2CCN(CC(=O)Nc3ccccc3Cl)CC2)c1	3.7	-7	10	0	11	-34	3373
Cc1ccc(S(=O)(=O)N2CCN(C(=O)N(C)C)CC2)cc1C	-0.9	-2	0	2	-8	2	2982
O=C(Nc1ccccc1)C1=C(O)CC(c2ccco2)CC1=Nc1ccccc1 (configuration not stated)	4.5	-4	8	8	-1	-6	4595
Cc1oc2c(CN3CCCCC3)c(O)ccc2c(=O)c1-c1ccc(Cl)cc1	0.5	-2	16	11	2	-11	3884

Compound profiles (already shown). Screens in order: Sa RN4220 lethal | BJeLR viability | Mtb hypoxia rep | Mtb hypoxia rep growth | ugtP null kill | PrP UTR inh | Autofluor counter
COc1ccc(C2CC(O)(c3ccccc3)Oc3cc(OC)ccc32)cc1 (configuration not stated) across the screens: 1.2 | -2 | 1 | 1 | 12 | -17 | 3081
CCCCc1nc2cc(C(=O)N(C)C(C)c3ccccn3)ccc2o1 (configuration not stated) across the screens: -1.0 | -1 | -6 | 8 | -7 | -13 | 4730
Cc1oc2c(CN3CCCCC3)c(O)ccc2c(=O)c1-c1ccc(Cl)cc1 across the screens: 0.5 | -2 | 16 | 11 | 2 | -11 | 3884
Cc1ccc(NC(=O)CSc2nnc(NC(=O)C(C)C)s2)c(C)c1 across the screens: 5.4 | -6 | 10 | 4 | 2 | -19 | 5839
Cc1cc(OCc2cc(C(=O)O)oc2C)c2c3c(c(=O)oc2c1)CCCC3 across the screens: 9.0 | 3 | 0 | 2 | 2 | -17 | 9737

Carrying on:
SMILES	Sa RN4220 lethal	BJeLR viability	Mtb hypoxia rep	Mtb hypoxia rep growth	ugtP null kill	PrP UTR inh	Autofluor counter
CN(c1ncnc(N)c1[N+](=O)[O-])C1CCCCC1	1.2	-4	2	2	10	30	4414
CSc1ncccc1C(=O)OCC(=O)NC(C)(C)C	0.4	7	8	-2	4	-61	3947
O=c1c2ccc(Cl)cc2[nH]c(=S)n1-c1cccnc1	1.8	7	4	6	0	-26	4331
O=C(NNC(=O)c1ccccc1F)c1ccc2[nH]c(=O)c(=O)[nH]c2c1	1.6	5	-5	-2	5	-10	5509
C[C@]12C=CC(=O)C=C1CC[C@H]1[C@@H]3C[C@@H](O)[C@](O)(C(=O)CO)[C@@]3(C)C[C@H](O)[C@@]12F	.	5	.	.	.	1	6097
CC(=NOC(=O)c1ccccc1F)c1nccs1	2.1	.	6	-5	1	.	.
N/C(=N\OC(=O)c1ccc(Br)o1)c1ccccn1	2.7	1	0	9	8	-3	4361
Cc1ccc(-c2csc(NC(=O)N3CCOCC3)n2)cc1	3.4	10	8	13	0	-44	2724
COc1ccc(-c2cc(-c3ccccc3)nc(SCC(=O)Nc3nccs3)c2C#N)cc1	.	-6	.	.	.	-9	2015
Cn1nnnc1SCC(=O)Nc1ccccc1Cc1ccccc1	0.9	24	.	.	0	-5	.
CCOC(=O)c1c(NC(=O)C2C3C=CC(C3)C2C(=O)O)sc2c1CC(C)CC2 (configuration not stated)	5.9	2	-1	-1	10	-3	4517
Cc1ccc(C(=O)N2CCCC(CCC(=O)N3CCN(c4ccccn4)CC3)C2)cc1C (configuration not stated)	2.6	1	7	4	5	-11	5402
O=C(O)c1ccc(C=NNC(=O)c2cc(-c3cccs3)nc3ccccc23)cc1	3.0	.	14	4	3	.	.
Cc1cc(C)cc(N2CC(C(=O)O)CC2=O)c1 (configuration not stated)	-1.2	6	.	.	1	9	3091
Cc1ncc(CO)c2cc(C(N)=O)c(=Nc3ccccc3)oc12	4.1	-12	5	1	-6	14	9788

Structural class: the compounds so far containing two or more sulfur atoms (2)
SMILES	Sa RN4220 lethal	BJeLR viability	Mtb hypoxia rep	Mtb hypoxia rep growth	ugtP null kill	PrP UTR inh	Autofluor counter
Cc1ccc(NC(=O)CSc2nnc(NC(=O)C(C)C)s2)c(C)c1	5.4	-6	10	4	2	-19	5839
COc1ccc(-c2cc(-c3ccccc3)nc(SCC(=O)Nc3nccs3)c2C#N)cc1	.	-6	.	.	.	-9	2015

Other structures follow.
SMILES	Sa RN4220 lethal	BJeLR viability	Mtb hypoxia rep	Mtb hypoxia rep growth	ugtP null kill	PrP UTR inh	Autofluor counter
Cc1ccc(C)c(Cn2c(CO)nc3ccccc32)c1	3.3	-4	.	.	-3	-19	4799
COC(=O)C1=CC(C(=O)OC)C2C3=C(C(=O)C2(C)C)C(C)n2c(=O)n(-c4ccccc4)c(=O)n2C3C1 (configuration not stated)	5.1	.	11	10	-8	.	.
COCC1CCCCN1C(=O)c1ccc(OC2CCN(Cc3ccccn3)CC2)cc1 (configuration not stated)	1.9	1	-4	3	0	0	?
O=C1CCCC(=O)N1c1ccc(O)cc1	0.2	-1	17	2	3	-10	2078
COC(=O)C(Cc1ccccc1)NC(=O)CSc1nc(N)cc(=O)[nH]1 (configuration not stated)	-2.9	9	.	.	4	-20	4374
CC(=O)Oc1ccc(C(=O)Nc2cc(NC(=O)c3ccc(OC(C)=O)cc3)cc(C(=O)NC(C)(C)C)c2)cc1	-2.5	1	6	3	-5	-14	2392
CSc1ccccc1OCc1cc(C(=O)NCCC2=CCCCC2)no1	-0.4	3	-2	2	-3	-23	?
Cc1cccc(N2C(=O)c3cccc4cccc(c34)C2=O)c1	-1.6	1	-7	7	-8	0	3264
Cc1ncc([N+](=O)[O-])n1CCOC(=O)Nc1ccc([N+](=O)[O-])cc1	1.5	0	6	-5	-8	-22	2210
Cc1[nH]c2ccc(C(=O)N3CCN(c4ccccc4Cl)CC3)cc2c1C	-5.0	8	0	-7	-20	4	5135
C=C(C)C1CC=C(C)/C(=N/NC(=O)c2cccc([N+](=O)[O-])c2)C1 (configuration not stated)	.	-7	.	.	.	-7	2599
CC(C)N(C(=O)COC(=O)c1ccc(Cl)s1)c1ccccc1	3.0	.	7	-2	6	-7	6360
c1ccc2c(NCC3CCCO3)nc(N3CCCCC3)nc2c1 (configuration not stated)	4.3	12	13	6	3	-12	3206
O=C1NC2=C(C(=O)CCC2)C(c2ccccc2Cl)N1 (configuration not stated)	-0.7	-14	4	-7	10	-34	4011
N#C/C(=C(/O)COC(=O)CCCNC(=O)c1ccc(Cl)cc1)c1nc2ccccc2[nH]1	.	14	.	.	.	-14	3914
COc1ccc(Cn2nnnc2CN2CCOCC2)cc1	3.1	7	7	0	8	-11	5227
COc1cccc(NC(=O)C2C(c3ccccc3)C2(Cl)Cl)c1 (configuration not stated)	-7.3	1	3	2	-12	-9	3089
Cc1ccc(C(C)(C)C)cc1S(=O)(=O)Nc1ncnc2sccc12	6.1	.	0	2	-2	-14	9053
CCCc1ccc(OCC(=O)Nc2cc(S(=O)(=O)CC)ccc2O)cc1	0.7	1	15	12	5	35	3227
COc1ccc(CN(C)C(=O)CNC(=O)Cc2cccc3ccccc23)c(OC)c1OC	0.4	0	5	7	-4	-1	5150
O=C(CNCC1CCCO1)Nc1ccccc1N1CCCCCC1 (configuration not stated)	7.8	6	5	-6	-2	-20	4525
COc1ccc(C=NNc2nc(-c3cccnc3)nc3ccccc23)c(OC)c1	-2.5	.	12	14	-1	.	.
Cc1ccc(-n2c(C)cc(C(=O)COC(=O)C3=NNC(=O)CC3)c2C)cc1	6.5	7	12	10	6	-8	3267
CC12CCC(=O)N1C(C(=O)NNC(=O)COc1ccccc1F)CS2 (configuration not stated)	6.3	.	6	6	7	-27	4133
COC1=C/C(=C/c2c(N)n3c(nc2=O)sc2cc(S(C)(=O)=O)ccc23)C=CC1=O	.	1	.	.	.	-29	4962
Nc1ccccc1-c1nnn(CC(=O)Nc2ccc3c(c2)OCCO3)n1	-5.9	-1	-4	0	-11	-19	5856
CN(CC(=O)N1CCN(c2ccccc2)CC1)S(=O)(=O)c1cnc[nH]1	2.0	-6	6	6	3	-19	3219
O=C(NC(=O)c1cccc(F)c1)Nc1nc(-c2ccc(F)cc2)cc(C(F)(F)F)n1	5.0	.	-4	-11	4	-9	3204
COc1ccccc1/C=C1\SC(=S)N(CC(=O)NC2CCS(=O)(=O)C2)C1=O (configuration not stated)	5.9	3	-5	0	6	-26	5896
COc1ccc(C(=O)OCC(=O)N2CCN(C(=O)c3ccco3)CC2)cc1OC	1.0	.	0	6	2	6	3039
CC(C)N(Cc1nccn1C)C(=O)c1cc(COc2cccc(C(F)(F)F)c2)on1	2.3	4	-2	-2	5	-11	5557
Cc1cccc2cc(CN(Cc3cccs3)C3(c4nnnn4C4CCCC4)CCCC3)c(=O)[nH]c12	-1.3	-8	.	.	-7	-27	2487
O=C(/C=C/c1ccccc1)OCCN1C(=O)c2ccccc2C1=O	6.3	-7	7	8	6	-52	3735
COc1cccc(CN(C(=O)Cc2c[nH]c3ccccc23)C(C(=O)NC2CCCCC2)c2cccs2)c1 (configuration not stated)	1.0	7	6	5	-11	-15	?
COc1ccc(CN(C)C(=O)c2cc(S(=O)(=O)Nc3ccccc3F)ccc2C)c(OC)c1	6.8	3	11	3	-5	-5	3720
COc1ccc(CC(C)=NNC(=O)c2ccc(C)cc2C)cc1	3.6	.	5	5	1	.	.
Cc1ccc(/C=N/NC(=O)c2c[nH]c3ccccc23)o1	.	0	.	.	.	-13	6037
O=C1[C@@H]2[C@H](Cc3ccc(O)cc3)N[C@]3(C(=O)Nc4ccccc43)[C@@H]2C(=O)N1c1ccc(F)cc1	7.0	11	2	1	6	-2	9543
CCC(C)[C@H](NS(=O)(=O)c1ccc(C)cc1)C(=O)N1CCC(C(=O)N2CCC(C(N)=O)CC2)CC1 (some centres not stated)	3.1	-9	.	.	-7	-33	5396
Cc1cc(=O)n(C)c(=O)n1CCCCCOc1cccc([N+](=O)[O-])c1	4.6	-19	9	6	-3	-28	4479
O=C(O)CNC1c2ccccc2CSc2ccccc21 (configuration not stated)	5.1	0	12	1	10	.	4100
O=C(c1cc(-c2ccc(Cl)s2)nc2ccccc12)N1CCOCC1	1.8	-8	7	-3	1	-16	?
Cc1cccc(N(C(=O)c2csnn2)C(C(=O)NCc2ccccc2)c2ccncc2)c1 (configuration not stated)	-3.6	-9	-3	-10	-8	-9	4425
O=P(O)(CCc1ccccc1)CN1CCCCC1	2.7	4	-2	7	4	7	11100
COc1ccc(S(=O)(=O)N2CCOCC2)cc1NC(=O)CSc1nnc2n1CCCCC2	6.6	.	7	7	6	-5	3393
O=C(CCC(=O)OCc1cccc([N+](=O)[O-])c1)Nc1ccccc1Cl	1.2	-7	-15	5	4	-15	2567
C=C1C(=O)OC2C1CCC(C)=CCC[C@@]1(C)OC21 (some centres not stated)	5.4	.	20	16	3	.	.
COc1cccc(C(=O)N/N=C(\CC(C)C)c2ccccc2)c1	.	0	.	.	.	-10	9606
Cc1ccc(NS(=O)(=O)c2cccc(C(=O)NC3CC3)c2)c(C)c1	18	.	4	-1	3	-2	2849
CSc1ccc(CN(C)CC(=O)Nc2ccccc2Br)cc1	12	-5	.	.	74	-35	2101
Cc1ccc(NC(=O)CNC(=O)c2cccc(Cl)c2)nc1	-0.9	1	2	0	7	-25	4397
Cc1cc(C)nc(NS(=O)(=O)c2ccc(NC(=O)C(C)Oc3ccccc3F)cc2)n1 (configuration not stated)	-1.5	3	3	14	14	-8	6411

Source: PubChem (several laboratories)
